Screening results from PubChem.
PABP polyA inh: PABP poly(A) RNA binding inhibitors, primary screen, biochemical, fluorescence polarization, uHTS | Polyadenylate-binding protein 1 (Homo sapiens), P11940 | actives 1% (n = 290,000) | AID 2014, 2009 | inhibition, % at 35 µM;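 active = 50% or more with normal probe brightness, or confirmed in later tests; inconclusive = above 50% with abnormal brightness, or retests that disagree; inactive = below 50% or failed in later tests; about a fifth of its hits are not listed in these tables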;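 also: calls also rest on retests at 20 µM and on dose response follow-up; controls were probe without protein and protein plus probe with vehicle; some compounds called inactive have numbers as strong as hits; many hits fall short of the cut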
Target sequence (P11940 whole entry, looked up): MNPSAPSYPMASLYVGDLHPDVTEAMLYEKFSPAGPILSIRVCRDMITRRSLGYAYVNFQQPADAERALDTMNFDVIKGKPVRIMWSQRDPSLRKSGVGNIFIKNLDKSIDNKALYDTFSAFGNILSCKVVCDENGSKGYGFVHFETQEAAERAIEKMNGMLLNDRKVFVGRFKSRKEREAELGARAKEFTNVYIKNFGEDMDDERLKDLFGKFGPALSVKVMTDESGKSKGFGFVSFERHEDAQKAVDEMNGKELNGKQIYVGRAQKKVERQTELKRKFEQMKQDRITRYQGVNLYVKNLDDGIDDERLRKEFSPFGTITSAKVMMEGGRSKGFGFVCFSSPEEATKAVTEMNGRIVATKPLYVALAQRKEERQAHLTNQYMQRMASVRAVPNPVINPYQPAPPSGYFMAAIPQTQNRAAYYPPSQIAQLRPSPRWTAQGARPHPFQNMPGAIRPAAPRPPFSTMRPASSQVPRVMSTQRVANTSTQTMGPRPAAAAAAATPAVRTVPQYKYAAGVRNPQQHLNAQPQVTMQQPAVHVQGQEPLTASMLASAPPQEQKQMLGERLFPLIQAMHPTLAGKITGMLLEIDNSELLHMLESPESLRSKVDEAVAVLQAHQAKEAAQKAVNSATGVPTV
Rce1 inh: yeast Rce1p protease inhibitors, primary screen, biochemical, fluorescence, cell-free homogeneous | actives 0.27% (n = 290,000) | calls only | yeast membranes, quenched prenylated peptide cleavage fluorescence | AID 2563, 2010;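 active = fall in fluorescence gain of 50% or more versus controls, with final raw signal at or below 3038400; inconclusive = same 50% fall but final raw signal above 3038400; inactive = fall in fluorescence gain under 50%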;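 also: plate controls were neutral control wells for no effect and wells lacking membranes for full effect; tested at 10 µM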
Yeast UUG start: modulators of yeast start codon fidelity, primary screen, whole organism, S. cerevisiae, single point, plate reader; actives 0.13% (n = 350,000); S. cerevisiae UUG-firefly luciferase reporter, luminescence/redox ratio; activity score, % at 18.7 µM;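 active = replicate mean at a twofold rise or more, about +100% in these data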;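 also: firefly luciferase made from a UUG start codon reports start codon fidelity; reporter light over untreated wells divided by growth signal over untreated wells; some hits fall short of that in this replicate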
CSC inhib: cancer stem cell viability inhibitors, primary screen, luminescence. cancer stem cell-like cells viability. inhibition, % at 7.5 µM. actives 1.1% (n = 300,000). AID 2717, 2010;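 active = mean at 75% or more and at least half the replicates too; inconclusive = mean and replicates disagree; tested in HMLE shEcad cells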;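 also: 0% = median of negative and 100% = median of positive control wells; the first replicate is given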
eIF4H inh: human eIF4H binding inhibitors, primary screen, translation initiation inhibitor project, biochemical, uHTS, fluorescence polarization. Eukaryotic translation initiation factor 4H (Homo sapiens), Q15056. eIF4H fluorescence polarization binding assay. inhibition, % at 35 µM. actives 0.94% (n = 290,000). AID 2012, 2009;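 active = 50% or more with normal probe brightness, or confirmed in later tests; inconclusive = above 50% with abnormal brightness, or retests that disagree; inactive = below 50% or failed in later tests; about a fifth of its hits are not listed in these tables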;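 also: calls also rest on retests at 20 µM and on dose response follow-up; 0% = protein and probe with vehicle and 100% = probe without protein; strong numbers were not always called active; many hits fall short of the cut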
Env fusion inh: inhibitors of HIV-1 Env-driven cell-cell fusion, primary screen, HeLa-JRFL effector, CEM21 target cells, luciferase; inhibition, % at 12.3 µM; actives 1.1% (n = 360,000); AID 651610, 2012;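 active = mean replicate inhibition score of at least 50 and every replicate individually at or above 50; inconclusive = only one of the two criteria met; inactive = mean below 50 and not all replicates reaching 50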;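 also: 0% = plate neutral controls and 100% = maraviroc near 300 nM; one replicate is shown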
MT1-MMP act inh: blockers of MT1-MMP proenzyme processing, primary screen, HT1080 RFP-PRO-GFP cells, GFP/RFP fluorescence | GFP/RFP ratio fluorescence, overnight; percent of plate control window, DMSO zero | GFP/RFP ratio change, % at 20 µM | actives 0.061% (n = 360,000);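 active = GFP/RFP ratio change of at least 30% with cell ATP level not reduced by more than half and red fluorescence within 50% of control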; also: strong numbers were not always called active
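Assay system: HT1080 RFP-PRO-GFP cells | Dosing: 20 µM single dose, 1% DMSO | Incubation: Cells overnight before dosing, compound overnight, 37 °C, 5% CO2 | Evaluation: GFP/RFP fluorescence ratio | Control set: DMSO-only wells and HT1080 RFP-L50D-GFP cell wells as references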
eIF4H inh retest: second read-out of eIF4H inh, no call of its own (marks repeat the call); inhibition, %; compound at 20 µM; confirmation average;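 mean of two retest wells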
PABP polyA inh retest: also measured in PABP polyA inh; calls as there; inhibition, %; compound at 20 µM; confirmation repeats;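 mean of two retest wells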
MT1-MMP act inh RFP: further read-out of MT1-MMP act inh, marked with its call; RFP signal change, %; measured here: RFP expression control read;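 0 = vehicle wells; hits needed this value within 50% of zero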
Active calls of the source: *; i = inactive; ? = inconclusive; · = not tested or not shown.

Sample of the layout, three compounds:
SMILES | PABP polyA inh | Rce1 inh | Yeast UUG start | CSC inhib | eIF4H inh | Env fusion inh | MT1-MMP act inh | MT1-MMP act inh RFP | others
COc1ccc(Cn2c(=O)[nH]c3cc(OC)c(OC)cc3c2=O)cc1 | 3 | i | -9 | -12 | 4 | 0 | -2 | -4
O=C(CN1CCN(S(=O)(=O)c2ccc(F)cc2)CC1)Nc1cccc(C(F)(F)F)c1 | -3 | i | 11 | -6 | -2 | · | 1 | -4
COc1ccc(Cl)cc1Nc1nc(NCCO)nc(N2CCCC2)n1 | 9 | i | -15 | -11 | -9 | · | 7 | -2

Results, repeating the preview:
SMILES | PABP polyA inh | Rce1 inh | Yeast UUG start | CSC inhib | eIF4H inh | Env fusion inh | MT1-MMP act inh | MT1-MMP act inh RFP | others
COc1ccc(Cn2c(=O)[nH]c3cc(OC)c(OC)cc3c2=O)cc1 | 3 | i | -9 | -12 | 4 | 0 | -2 | -4
O=C(CN1CCN(S(=O)(=O)c2ccc(F)cc2)CC1)Nc1cccc(C(F)(F)F)c1 | -3 | i | 11 | -6 | -2 | · | 1 | -4
COc1ccc(Cl)cc1Nc1nc(NCCO)nc(N2CCCC2)n1 | 9 | i | -15 | -11 | -9 | · | 7 | -2
O=[N+]([O-])c1cnn2cc(Br)cnc12 | 4 | i | -4 | 2 | -6 | 7 | 2 | 0
C=CC[C@@H](CC(=O)N(CCO)Cc1ccccc1)C(=O)N[C@H](COC(=O)[C@@H](CC=C)CC(=O)OC(C)(C)C)c1ccccc1 | · | · | -23 | · | · | 8 | -10 | -6
CS(=O)(=O)Nc1ccc(C(=O)Nc2ccc(S(=O)(=O)Nc3nccs3)cc2)cc1 | 10 | i | -15 | -8 | -5 | -17 | 3 | 4
COc1ccccc1CCNC(=O)c1ccc2nc[nH]c2c1 | 16 | i | 23 | -10 | 38 | 9 | 2 | 0
CCc1sc(C(=O)Nc2cc(Cl)ccc2N2CCCCC2)cc1C | 4 | i | -13 | 19 | 3 | 48 | -5 | -8
Cn1c(CCN2CCOCC2)nc2cc(NS(=O)(=O)c3ccccc3)ccc21 | 4 | i | -15 | -2 | -9 | 6 | 4 | 0
NC(=O)C1CCN(C2=C(NS(=O)(=O)c3ccc(Br)cc3)C(=O)c3ccccc3C2=O)CC1 | 21 | i | -8 | 1 | 9 | -5 | 2 | 0
Cc1cccc(C(=O)NNC(=O)c2ccccc2Br)c1 | -7 | i | 0 | -11 | -10 | -68 | -3 | -1
Cn1c(CCC(=O)Nc2cc(S(C)(=O)=O)ccc2Cl)nc2cc(S(=O)(=O)N3CCOCC3)ccc21 | · | i | -17 | -1 | · | -5 | 0 | 3
COc1ccc(C(=O)NC(=S)NNC(=O)c2ccccc2C)cc1 | · | · | -25 | 14 | · | 15 | · | ·
CC(=O)N1CCOc2ccc(S(=O)(=O)N3CCC(C(=O)NCc4ccccc4)CC3)cc21 | 12 | i | -6 | -1 | 19 | 3 | 0 | 4
Cc1cccc(C)c1NC(=O)CN1C(=O)NC(C)(C2CC2)C1=O (stereo not drawn) | · | · | 5 | -15 | · | 1 | 0 | 1
COc1ccc2nc(NC(=O)CCn3cccc3)sc2c1 | -9 | i | -16 | 13 | -8 | · | 3 | 2
CCn1c(SCC(=O)NC2CC2)nnc1-c1cccc(OC)c1 | 4 | i | 3 | 5 | 6 | 1 | -2 | 2
CCOCC(=O)NCc1ccc2c(c1)OCO2 | -3 | i | -8 | -5 | -4 | · | 1 | 3
O=S(=O)(c1cccc2nsnc12)N1CCN(c2ccccc2F)CC1 | 2 | i | · | -5 | 4 | -1 | -2 | 0
[O-]/[N+](=C\c1ccccc1)[C@@H]1CCCC[C@@H]1/[N+]([O-])=C/c1ccccc1 | -5 | i | 0 | -9 | -2 | · | 5 | 7
COC(=O)C(C)N1C(=O)S/C(=C\c2ccc(-c3ccc(C(=O)O)cc3C)o2)C1=O (stereo not drawn) | 45* | i | -7 | -17 | 52* | -27 | -10 | 0 | eIF4H inh retest=86*;PABP polyA inh retest=84*
Cc1cc(C)c(S(=O)(=O)NC2CCN(Cc3ccccc3)CC2)c(C)c1 | 4 | i | · | 1 | 6 | 9 | 1 | 6
CC(=O)c1ccc(S(=O)(=O)N2CCN(C(=O)c3ccc(-n4cncn4)c([N+](=O)[O-])c3)CC2)cc1 | · | · | -11 | -4 | · | -11 | 4 | 3
O=C(NC(Cc1c[nH]c2ccccc12)C(=O)O)/C(=C\c1ccc2c(c1)OCO2)NC(=O)c1ccccc1 (stereo not drawn) | -7 | i | -2 | -6 | -4 | -51 | -6 | 3
CCN(C[C@H]1N[C@@](CC)(C(=O)OC)[C@H]2C(=O)N(C)C(=O)[C@@H]12)C(=O)Nc1ccc(C(F)(F)F)cc1 | · | · | -11 | · | · | -27 | 1 | 2
O=C(/C=C/c1ccccc1)NNC(=O)C1CC1 | 12 | i | 0 | -6 | -2 | · | -1 | 1
CC(NC(=O)c1ccccc1)c1nnc(SCC(=O)NC2=NCCS2)n1C (stereo not drawn) | 4 | i | · | 2 | -4 | 7 | 0 | 0
COCCCn1c(SCC(=O)NC(C)(C)C)nnc1-c1ccccc1 | -2 | i | -7 | -4 | -2 | -43 | 4 | 2
Cc1oc(-c2ccc(-c3ccccc3)cc2)nc1CN(C)C1CCOC1 (stereo not drawn) | -3 | i | -19 | 7 | 0 | -62 | 1 | -14
COCCNC(=O)Cc1c(C)c2c(cc(C)c3c(C)coc32)oc1=O | -6 | i | 4 | 6 | -8 | 5 | 1 | -1
COc1ccc(S(=O)(=O)NC2CCCC2)cc1C(N)=O | 6 | i | -15 | -1 | -3 | 13 | 0 | 0
CC(C)CC(=O)OCc1cn(-c2ccccc2)nn1 | 0 | i | 1 | 8 | -3 | 6 | 3 | 3
C[C@@H]1CN([C@@H](C)CO)C(=O)CCCn2cc(nn2)CO[C@H]1CN(C)S(=O)(=O)c1ccccc1F | · | · | -2 | · | · | -37 | 0 | 3
CCOC(=O)C1CCN(S(=O)(=O)c2ccc(-c3ccc(=O)[nH]n3)o2)CC1 | 3 | i | -18 | -2 | 5 | -3 | -3 | 0
CCCCN(CCCC)c1nc2ccccc2nc1C(C#N)C(=O)NCCCOC (stereo not drawn) | 26 | i | -12 | 18 | 3 | · | -3 | 3
COc1cnc(SCc2ccc(Cl)c(Cl)c2)nc1Cl | -4 | i | 1 | · | 3 | · | 2 | 2
CCCCCOC(=O)c1cc(=O)[nH]c2ccccc12 | -13 | i | -20 | -3 | -1 | · | 5 | 0
COc1cccc(-c2nc(-c3ccc4c(c3)-c3ccccc3S4(=O)=O)c(-c3ccccc3)[nH]2)c1OC | 1 | i | -6 | -2 | -4 | · | -7 | -8
COc1ccc(OC)c(/C=N/NC(=O)c2cnccn2)c1 | 6 | i | · | -23 | 0 | 1 | -1 | 0
N#CC(C#N)=C(N)Nc1cccc(Cl)c1 | 2 | i | · | -2 | -1 | 2 | -1 | 4
CCOc1ccc(C(=O)Nc2nnc(C3=COCCO3)o2)cc1 | -1 | i | 12 | 15 | 6 | 1 | 1 | 3
Cc1ccc(-c2csc(Nc3ccc(S(N)(=O)=O)cc3)n2)o1 | -13 | i | · | -11 | -3 | 12 | -6 | 4
CCOC(=O)/C=C/C(=O)Nc1ccc(S(=O)(=O)Nc2nccs2)cc1 | 0 | i | -10 | 3 | 27 | 3 | 1 | 4
Cc1cccc(C(=O)Oc2coc(CSc3nnc(NC(=O)C4CC4)s3)cc2=O)c1 | -17 | i | · | 41 | 24 | -22 | 7 | 2
CC(=O)Nc1ccc2c(c1)nc(C)n2Cc1ccccc1 | 14 | i | -12 | -7 | 4 | 2 | 4 | -3
CC(=O)c1cnc(N2CCCCC2)nc1C | -10 | i | 1 | -1 | -3 | -97 | 3 | 5
CCCC(O)(c1ccccc1)C(c1ccccc1)c1ccccn1 (stereo not drawn) | · | · | -13 | · | · | -11 | -3 | 6
Nc1c(S(=O)(=O)c2cccs2)c2nc3ccccc3nc2n1/N=C/c1cccc(O)c1 | 3 | i | 0 | 97* | -1 | · | -1 | -17
Cc1ccnc(NC(=O)CCC(=O)N(CC(=O)NC2CCCCC2)c2cccc(C)c2C)c1 | 2 | i | -19 | -9 | 14 | · | -6 | -4
CCCCNC(=O)c1onc(CSc2cccc3ccccc23)c1C(=O)O | 3 | i | -8 | 38 | -9 | -18 | 2 | 4
CCOc1ccc(NC(=O)CC2C(=O)N(C)C(=S)N2CCCc2ccccc2)cc1 (stereo not drawn) | 4 | i | -6 | 24 | 1 | 1 | -4 | -2
N#Cc1c(-c2ccc(Br)cc2)cc(-c2cccnc2)nc1N | -6 | i | · | 2 | -6 | 16 | 0 | 2
C=CCN1C(=O)CSC1=Nc1ccc(C(=O)O)cc1 | 10 | i | 1 | -15 | -1 | -3 | -1 | 6
CN(c1ccccc1)c1nc(N)c([N+](=O)[O-])c(NCc2ccccc2)n1 | 5 | i | · | 18 | -6 | 18 | -1 | -7
O=c1oc2cc(OCc3ccc([N+](=O)[O-])cc3)ccc2c2c1CCCC2 | -8 | i | 1 | 4 | -1 | -144 | 3 | 5
O=C(O)CCC(=O)Nc1ccc(Br)cc1C(=O)c1ccccc1 | 4 | i | 1 | -9 | -7 | 4 | 8 | 6
COc1ccc(Cl)cc1NC(=O)COc1ccc2c(c1)OCO2 | · | · | -15 | -10 | · | · | 4 | 5
CCOc1ccc(C(=O)N/N=C/c2ccccc2[N+](=O)[O-])cc1 | -7 | i | · | 3 | -5 | -35 | 6 | 2
COC(=O)Cc1ccc(NC(=O)c2ccccc2Br)cc1 | 3 | i | · | -3 | -7 | -12 | 0 | 0
O=C(NC(=S)Nc1ccc(CN2CCCCC2)cc1)c1cccc(OCc2ccccc2)c1 | -11 | i | · | · | -12 | 11 | 7 | -1

The list goes on.
SMILES | PABP polyA inh | Rce1 inh | Yeast UUG start | CSC inhib | eIF4H inh | Env fusion inh | MT1-MMP act inh | MT1-MMP act inh RFP | others
O=S(=O)(NCc1ccncc1)c1ccccc1 | 9 | i | · | · | 2 | ? | 1 | -10
CCOC(=O)c1c(N)n(-c2ccc(N)cc2)c2nc3ccccc3nc12 | 10 | i | · | 1 | 2 | 21 | 1 | 0
CCOC(=O)C1=C(C)N(c2ccc(OC)cc2)C(=O)/C1=C\c1cccs1 | 3 | i | · | 0 | -2 | 0 | 1 | 4
COc1ccc(C(=O)NC(Cc2ccccc2)c2ccc3c(c2)OCCCO3)cc1 (stereo not drawn) | -10 | i | -9 | -7 | -3 | · | 1 | 3
Cc1ccc(Nc2nc(-c3cccnc3)nc3ccccc23)cc1 | 1 | i | 10 | 65 | -5 | 33 | -7 | -10
Cc1cc(N2CCOCC2)nc2ccc(NC(=S)NC(C)C)cc12 | -15 | i | -11 | 49 | 6 | -25 | 8 | 3
Cc1ccc(NC(=O)c2cc(-c3cc(Cl)ccc3O)n[nH]2)cc1C | 5 | i | -13 | 6 | 14 | 20 | 5 | 5
